AmpC inh no det: Promiscuous and Specific Inhibitors of AmpC Beta-Lactamase (assay without detergent); AmpC nitrocefin hydrolysis, absorbance 480 nm, no detergent; potencies from a single point are estimates; Potency, µM (highest dose often 28.7 µM), without a hit: at the highest dose activity change, negative = inhibition; 71,000 compounds, 1.8% hits; active = falling curve, for most hits resting on a single point; inconclusive = weak or doubtful change; inactive = flat or rising curve; further: % of control where 0% means no effect; about half of the hits show no inhibition at the top dose; a quarter of the inactives give rising signals
Target sequence (P00811 whole entry, looked up): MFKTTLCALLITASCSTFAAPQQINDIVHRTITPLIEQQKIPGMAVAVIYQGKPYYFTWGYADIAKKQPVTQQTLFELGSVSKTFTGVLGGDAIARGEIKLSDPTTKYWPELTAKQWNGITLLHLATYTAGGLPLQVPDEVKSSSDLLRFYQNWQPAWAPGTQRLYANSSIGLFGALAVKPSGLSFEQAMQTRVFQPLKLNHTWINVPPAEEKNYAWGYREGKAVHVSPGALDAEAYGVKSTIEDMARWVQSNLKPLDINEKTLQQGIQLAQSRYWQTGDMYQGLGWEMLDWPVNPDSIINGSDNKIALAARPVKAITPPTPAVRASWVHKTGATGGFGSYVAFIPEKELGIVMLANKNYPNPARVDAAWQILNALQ
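Enzyme, pH 7.0 phosphate. Compound titrations were pre-incubated with AmpC for 15 min at room temperature before nitrocefin (stock 800 uM) addition; product formation was recorded at 480 nm every 20 s for 4 min.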
Starred values were filed as active, the others as inactive; & = joins results of further samples; [ ] = remark or other dose. Potency means the concentration at half of the fitted maximal effect. Only part of the results is shown; rates above refer to the full screens.

SMILES	AmpC inh no det
Nc1c(C(=O)NCc2ccc3c(c2)OCO3)c2nc3ccccc3nc2n1CCCN1CCOCC1	106.1%
Cc1cccc(CNc2ccnc(-c3ccoc3)n2)c1	58.9%
CC(=O)Nc1ccccc1OP1(=O)COc2ccccc2OC1	-11.3%
CS(=O)(=O)N1CCCC(C(=O)N2CCC3(CC2)OCCO3)C1 (centres undefined)	3.6%
COc1c(Cl)ccc(Cl)c1C(=O)NC(=O)N1CCOCC1	-4.6%
O=C(Nc1cccnc1)c1cc(-c2cccs2)on1	0.8%
CC(=O)c1cccc(NC(=O)C2CCCN2S(=O)(=O)c2cccc3cccnc23)c1 (centres undefined)	17.4%
COC(=O)[C@@]1(Cc2ccc(OC)cc2)[C@H]2c3cc(C(=O)N4CCCC4)n(Cc4ccc(O)c(OC)c4)c3C[C@H]2CN1C(=O)c1ccccc1	172.8%
CCN1CCN(C(c2ccccc2)c2nnnn2CCc2ccc(OC)c(OC)c2)CC1 (centres undefined)	4.4%
Cc1nc2ccccc2c2nc(NC(=O)Cc3ccccc3)nn12	0.0%
O=C(Nc1ccc(Cl)cc1)NC1CCS(=O)(=O)C1 (centres undefined)	0.3%
CC(=O)N1CCC2(CCN(Cc3ccccc3)CC2)CC1	-6.7%
COC(=O)c1ccc(OC)c(CSc2nnc(COc3ccc(OC)cc3)o2)c1	31.5%
CCOc1ccc(-n2c(=S)sc3c(=O)[nH]c(SCC(=O)NCc4ccco4)nc32)cc1	-5.0%
Cc1c(N=Cc2cccs2)c(=O)n(-c2ccccc2)n1C	-5.2%
CCOC(=O)c1ccccc1NC(=O)c1ccc(Cl)c(S(=O)(=O)N2CCOCC2)c1	52.2%
CCN1CCN(c2ccc(NC(=O)Cc3ccccc3)cc2)CC1	2.2%
NCCC[C@@H](CC(=O)N[C@@H]1CCCC[C@H]1C(=O)N[C@H](CC(=O)N[C@@H](CCC(=O)O)CC(=O)O)Cc1c[nH]c2ccccc12)NC(=O)C[C@H](CO)NC(=O)[C@@H]1CNCC[C@H]1N	106.6%
COc1ccc(CCNC(=O)c2ccn[nH]2)cc1OC	-4.3%
CN1CCN(C(=O)Cn2c(=O)oc3cc(S(=O)(=O)NCc4ccccc4)ccc32)CC1	22.9%
CC(CNC(=O)c1cncc(O)c1)NC(=O)c1cncc(O)c1 (centres undefined)	1.9%
O=C1C(=O)c2ccccc2C(O)=C1Cc1ccccc1	12.8%[5.75 µM]
COc1ccccc1NC(=O)NCC(=O)Nc1ccc(F)c(F)c1	-3.4%
O=C(c1ccccc1-c1nc2ccccc2[nH]1)N1CCOCC1	-3.6%
O=C(/C=N/O)NCCN1CCCCC1	-3.2%
CC1(C)CC(=O)c2cc(OCC(=O)NCCN3CCCc4ccccc43)ccc2O1	58.9%
COC(=O)N1CN(C(=O)OC)CN(C(=O)OC)C1	2.3%
COc1ccc(S(=O)(=O)Nc2cccc(C)n2)c2ccccc12	-4.2%
C(=NC1CCCCC1)=NC1CCCCC1	-12.3%
O=C(c1ccco1)N1CCN(C(=O)C2CCCO2)CC1 (centres undefined)	0.5%
CC(C)Sc1nc(SCC(=O)NCc2ccco2)c2c3c(sc2n1)COC(C)(C)C3	-9.0%
COc1ccccc1CNC(=O)CCn1c(=O)sc2ccccc21	16.2%
Cc1nc2ccccc2nc1CSc1nncs1	-6.9%
O=C(CN1CCCC1)Nc1ccc(NC(=O)Nc2ccccc2)cc1	0.4%
O=C(CSc1ncn[nH]1)N1CCN(c2nnc(-c3ccccc3)c3ccccc23)CC1	33.2%
O=c1[nH]cnc2c1sc(=S)n2-c1ccccc1	-6.0%
Nc1ccccc1Cl	-5.1%
Cc1ccc(C)c2[nH]c(=O)c(CN(CCN3CCOCC3)Cc3nnnn3CC3CCCO3)cc12 (centres undefined)	41.1%
Cc1noc(/C=C/c2ccco2)c1S(=O)(=O)N1CCC(C(=O)N(C)Cc2ccccc2)CC1	56.0%
Clc1ccc(OCCCn2cncn2)cc1Cl	17.5%
O=C(Cn1nc(C(=O)O)c2ccccc2c1=O)NCC1CCCO1 (centres undefined)	-2.3%
CCOC(=O)C1=C(C)N=C2SC(CC)C(=O)N2C1c1ccc(OC(C)=O)c(OCC)c1 (centres undefined)	100.2%
Cc1ccc2[nH]c(=O)c(CN(CCCN3CCOCC3)Cc3nnnn3C3CCCC3)cc2c1	85.0%
O=C(NCC(=O)N(CCc1ccccc1)C(C(=O)NC1CCCCC1)c1ccncc1)c1ccco1 (centres undefined)	82.3%
O=C(CC1NC(=O)NC1=O)NC1(C(=O)NC2CCCCC2)CCCCC1 (centres undefined)	6.7%
COc1ccc(C(=O)N2CCC[C@@]3(CCN(c4ccccc4)C3)C2)cc1	117.9%
O=S(=O)(c1ccccc1)c1nc(Nc2ccccc2N2CCOCC2)sc1Cl	21.7%
Cc1ccccc1-n1nc2c(c1NC(=O)c1ccc(S(=O)(=O)N(C)C)cc1)CSC2	6.3%
O=S(=O)(c1ccc(-c2csc(-c3cccnc3)n2)cc1)N1CCCCC1	88.5%
Cc1nc2ncnn2c(C)c1CCC(=O)Nc1csc(N)n1	2.1%
COc1ccc(-c2c(=O)n(OCc3ccccn3)c3ccccc3[n+]2[O-])cc1OC	34.3%
CCOC(=O)c1c(C)c(C(=O)NC(C)COC)c(C)n1C (centres undefined)	-7.6%
O=C1OC(=O)[C@@H]2[C@@H]1[C@@H]1CC[C@H]2O1	-5.9%&-4.1%
CCOC(=O)c1ccc(NC(=O)Nc2ccc(S(N)(=O)=O)cc2)cc1	-20.2%
COc1nc(N2CCCCCC2)nc(N2CCCCCC2)n1	-8.0%
Cc1ccc2oc(=O)c3cnn(CC(=O)NCCN4CCOCC4)c3c2c1	-2.7%
CCCCOC(=O)Nc1nnc(CCOCC)s1	10.7%
COc1ccc(-n2nc3c(c2NC(=O)c2c(-c4ccccc4Cl)noc2C)CS(=O)(=O)C3)cc1	44.0%
CCC(C)(C)n1nnnc1C(c1cccs1)N1CCN(Cc2ccccc2)CC1 (centres undefined)	59.3%
Cc1ccc(-n2cc(C(C)(C)C)[nH]c2=S)cc1	10.9%
(more compounds)
SMILES	AmpC inh no det
CCOC(=O)Cn1c(N2CCOCC2)nc2c1c(=O)[nH]c(=O)n2C	-2.9%
O=C1c2ccccc2-c2ccc(C(=O)N3CCOCC3)cc21	4.8%
C=CCn1c(SC(C)C(=O)NCc2ccc3c(c2)OCO3)nnc1C1CCCCC1 (centres undefined)	53.9%
Cc1ccc(S(=O)(=O)N2CCOCC2)cc1C(=O)Nc1ccc(-c2cn3ccsc3n2)cc1	78.0%
Cc1cc(S(=O)(=O)N2CCN(c3ccccc3C)CC2)ccc1F	-13.1%
Cc1cc(C)n(-c2nc(NC(C)C)nc(NC(C)C)n2)n1	16.3%
CCn1c(SCC(=O)N2CCOCC2)nnc1-c1cccs1	1.6%
O=C1N(Cc2ccccc2)CCCC12CCCN(Cc1ccccc1)C2=O	45.0%
Cc1cc(-c2ccccc2)n2ncc(C#N)c2n1	3.98µM*[single pt active]
O=C(CSc1nc2ccccc2n1-c1ccccc1)NCC1CCCO1 (centres undefined)	74.1%
O=C(O)c1cc[c]([Hg][S]c2ncnc3nc[nH]c23)cc1	-2.2%[5.75 µM]
CCOC(=O)c1c(NC(=O)c2nc3n(n2)C(C(F)F)CC(C)N3)sc2c1CCCC2 (centres undefined)	35.3%
Nc1nnc(-c2ccccc2)c(-c2ccccc2)n1	-1.2%
Fc1ccc(-c2nnc(SCc3ncc(-c4ccccc4)o3)n2CC2CCCO2)cc1 (centres undefined)	45.0%
COc1ccc(NC(=O)COn2nnc3ccc(Cl)cc32)cc1OC	29.6%
CCC(C)C(=O)Nc1cc(C(=O)OC)cc(C(=O)OC)c1 (centres undefined)	-5.7%
Cc1c(NC2=NC3(CCCCC3)Cc3ccccc32)c(=O)n(-c2ccccc2)n1C	-2.6%
CCOC(=O)C(C)Sc1nc(-c2ccco2)cc(C(F)(F)F)c1C#N (centres undefined)	-2.7%
COc1ccc(NC(=O)CN(c2ccccc2)S(=O)(=O)N(C)C)cc1OC	-2.9%
Cc1ccc(C(=O)CSc2nnc(-c3cccs3)n2C)o1	-1.3%
CN(C(=O)c1ccc(Cl)c(S(=O)(=O)N2CCOCC2)c1)c1ccccc1C(=O)O	-4.4%
CCOC(=O)N1CCN(C(=O)c2ccc3c(=O)n4c(nc3c2)CCCCC4)CC1	26.8%
CC1CCN(S(=O)(=O)c2ccc3c(c2)oc(=O)n3CC(=O)NCc2ccc3c(c2)OCO3)CC1	3.98µM*
CCOC(=O)N1CCN(C(=O)CSCC(=O)Nc2nc(-c3ccc4c(c3)OCO4)cs2)CC1	93.7%
CC(=O)N1CCN(c2ccc(NCc3ccccc3)cc2)CC1	40.0%
CCN(CCCNC(=O)c1c(C)cc(=O)oc1C)c1cccc(C)c1	98.3%
O=P(O)(O)C12CC3CC(CC(C3)C1)C2	-2.4%
CC(C)c1ccc(Cn2ccc3c4c(N)nc(NC5CC5)nc4ccc32)cc1	12.0%
CNCCCC1c2ccccc2C=Cc2ccccc21	1.2%[12.8 µM]
Cc1cnc(CNc2ncnc3ccc(-c4c(C)noc4C)cc23)cn1	11.1%
CCCn1nnc(NC(=O)c2ccco2)n1	-2.3%
Cc1cc(=O)oc2cc(OCC(=O)N3CCc4ccccc4C3)ccc12	24.8%
CCOC(=O)C(NC(=O)c1ccc(OC)cc1)(N1CCOCC1)C(F)(F)F (centres undefined)	-6.7%
CCOC(=O)CSc1nc2c(c(=O)[nH]c(=O)n2C)n1CCc1ccccc1	7.4%
N#CCCN1CCN(S(=O)(=O)c2ccc(S(=O)(=O)N3CCCC3)cc2)CC1	1.0%
COCCn1nnnc1C(C(C)C)N(Cc1cccnc1)Cc1cc2cc(OC)ccc2[nH]c1=O (centres undefined)	97.5%
COc1cccc(-n2c(Cc3cc(=O)[nH]c(=O)[nH]3)nnc2SCc2cccnc2)c1	3.98µM*[single pt active]
COc1ccc(NC(=O)Cn2nc(C(F)(F)F)c3c2CCCC3)c(OC)c1	52.3%
NCCCCCc1nnc(SCC(=O)Nc2cccc(Cl)c2)o1	-2.9%
CCCSC1=N/C(=C\C=C\c2ccco2)C(=O)S1	-5.3%
CN(C)S(=O)(=O)c1cccc(C(=O)NCc2ccco2)c1	3.3%
CC1CCCN(S(=O)(=O)c2ccc(S(=O)(=O)N3CCCN(Cc4ccccc4)C3)cc2)C1 (centres undefined)	-4.8%
CC1CCCN(CCCNC(=O)c2coc3nc4ccccc4nc23)C1 (centres undefined)	-1.0%
Cn1c(=O)c2c(nc(NCCc3ccccc3)n2CC(=O)NCCc2ccccc2)n(C)c1=O	6.5%
Nc1ccc(N2CCOCC2)c(Cl)c1	-7.4%
CCOc1ccc(NC(=O)Nc2ccc3nccnc3c2)cc1	-15.0%
CCn1c(=O)cc(SCC(=O)NCc2cccnc2)c2ccccc21	4.6%
COc1ccc(N=C2SCC(=O)N2c2ccc(OC)cc2)cc1	-2.2%

Gathered by group: the compounds so far containing a furan ring, fused or not
SMILES	AmpC inh no det
Cc1cccc(CNc2ccnc(-c3ccoc3)n2)c1	58.9%
CCOc1ccc(-n2c(=S)sc3c(=O)[nH]c(SCC(=O)NCc4ccco4)nc32)cc1	-5.0%
O=C(c1ccco1)N1CCN(C(=O)C2CCCO2)CC1 (centres undefined)	0.5%
CC(C)Sc1nc(SCC(=O)NCc2ccco2)c2c3c(sc2n1)COC(C)(C)C3	-9.0%
Cc1noc(/C=C/c2ccco2)c1S(=O)(=O)N1CCC(C(=O)N(C)Cc2ccccc2)CC1	56.0%
O=C(NCC(=O)N(CCc1ccccc1)C(C(=O)NC1CCCCC1)c1ccncc1)c1ccco1 (centres undefined)	82.3%
CCOC(=O)C(C)Sc1nc(-c2ccco2)cc(C(F)(F)F)c1C#N (centres undefined)	-2.7%
Cc1ccc(C(=O)CSc2nnc(-c3cccs3)n2C)o1	-1.3%
CCCn1nnc(NC(=O)c2ccco2)n1	-2.3%
CCCSC1=N/C(=C\C=C\c2ccco2)C(=O)S1	-5.3%
CN(C)S(=O)(=O)c1cccc(C(=O)NCc2ccco2)c1	3.3%
CC1CCCN(CCCNC(=O)c2coc3nc4ccccc4nc23)C1 (centres undefined)	-1.0%

Other structures follow.
SMILES	AmpC inh no det
N#Cc1nc(COc2ccccc2F)oc1N1CCCCCC1	17.9%
COc1ccc(C2=NCC(CSc3nnc(-c4ccc5c(c4)OCO5)o3)S2)cc1 (centres undefined)	43.0%
O=C(c1ccc(S(=O)(=O)N2CCOCC2)cc1)N1CCN(c2cccc(Cl)c2)CC1	140.4%
Cc1noc(C)c1C(=O)OCC(=O)Nc1ccccc1C(=O)NC(C)c1ccccc1 (centres undefined)	22.6%
COCCCNC(=O)Cn1ncc2c(=O)oc3ccccc3c21	-1.8%
CC(C)(C)NC(=O)C1N(c2cccnc2)C(=O)C2C(C(=O)Nc3ccccc3)C3(C)C=CC21O3 (centres undefined)	-2.9%
COc1cc(CN2CCN(C(=O)CC(C)C)CC2)cc(OC)c1O	11.0%
O=S(=O)(c1ccc(OCC(O)CN2CCN(c3ccccc3Cl)CC2)cc1)N1CCOCC1 (centres undefined)	106.9%
O=C(CSc1nnc(Cn2c(=O)sc3ccccc32)n1-c1ccccc1)N1CCOCC1	62.0%
CCOC(=O)CSc1nnnn1-c1cc(OC)c(Cl)cc1OC	12.1%
COc1cc(C2C(C(=O)c3ccc(C)o3)=C(O)C(=O)N2Cc2cccnc2)ccc1O (centres undefined)	-10.4%
CCC(=O)N1CCc2cc(S(=O)(=O)CCC(=O)O)ccc21	-5.8%
CC(C)(C)C(=O)CSc1nccc(=O)[nH]1	-3.2%
CN(C)C1=NP(N(C)C)(N(C)C)=NC(c2ccccc2)=N1	13.2%
C[C@H](CCC(=O)O)[C@H]1CC[C@H]2[C@@H]3CC[C@@H]4C[C@H](O)CC[C@]4(C)[C@H]3CC[C@]12C	-16.4%
CC1CCCCN1CCNC(=O)C1CCN(S(=O)(=O)N2CCCCC2)CC1 (centres undefined)	3.8%
O=C(CCc1ccccc1)n1nc(-c2ccccc2)nc1NCc1ccco1	-7.6%
COc1ccc(Cc2nnc(NC(=O)c3c(-c4ccccc4)noc3C)s2)cc1	8.7%
